# MT1-MMP reporter = inhibitors of MT1-MMP promoter transcription, cell-based, luciferase reporter, luminescence (AID 618); MT1-MMP promoter luciferase reporter cells, luminescence; calls from a first round at 10 µM; hits with a dose series show EC50 in µM; actives 0.62% (n = 87,000);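 active = over half of the reporter light lost at 10 µM or EC50 under 50 µM; inactive = the rest and hits that failed the dose series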;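 note: actives suppress MT1-MMP promoter-driven transcription so potencies describe inhibitors; HT1080 fibrosarcoma cells; overnight exposure; toxic or luciferase-blocking compounds were not removed from the actives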
# Hsc70 = Hsc70 inhibitors, probe displacement, primary screen, biochemical, fluorescence polarization (AID 568); Heat shock cognate 71 kDa protein (Homo sapiens); Hsc70 fluorescence polarization, probe displacement; higher % means a stronger effect; strong numbers were not always called active; displacement, % at 20 µM; hits with a dose series show IC50 in µM; 83,000 tested, under 10 active;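 active = displacement above 50% without optical interference and an IC50 on retest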;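 note: ATPase domain with a fluorescein-tagged ATP probe; 0% = vehicle and 100% = excess ADP; read after one hour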
# WNV protease inh = inhibitors of WNV NS2B-NS3 protease, primary screen, biochemical, fluorogenic substrate | Genome polyprotein (West Nile virus), P06935 | z-score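 (tested at a level between 10 and 100 µM)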 | AID 577, 2007 | fluorogenic substrate Ex360/Em465; stronger effect = lower value | actives 0.18% (n = 65,000);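 active = z-score at -3 or under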;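 note: score is relative to mean and spread of the compound wells of a plate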
# Target sequence (P06935 1371-1501 limits assumed): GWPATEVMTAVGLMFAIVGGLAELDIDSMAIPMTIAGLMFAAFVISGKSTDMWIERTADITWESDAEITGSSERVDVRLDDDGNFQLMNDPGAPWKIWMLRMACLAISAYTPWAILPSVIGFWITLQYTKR
# Target sequence (P06935 1502-1679 limits assumed): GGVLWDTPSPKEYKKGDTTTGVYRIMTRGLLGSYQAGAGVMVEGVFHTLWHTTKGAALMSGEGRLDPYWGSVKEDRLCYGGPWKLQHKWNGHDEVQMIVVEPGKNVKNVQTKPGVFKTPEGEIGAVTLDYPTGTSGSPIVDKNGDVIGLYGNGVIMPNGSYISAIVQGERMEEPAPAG
# Active calls of the source: *; i = inactive; / = no result given.
SMILES,MT1-MMP reporter,Hsc70,WNV protease inh
COc1cccc(C2C(C#N)=C(N)Oc3cc(C)n(Cc4ccco4)c(=O)c32)c1 (stereo not given),i,-6.8%,-0.74
Cn1c(SCC(=O)Nc2ccc3cn[nH]c3c2)nnc1-c1cccs1,i,6.0%,0.35
CCCc1cc(=O)[nH]c(SCC(=O)N(C)CC(=O)Nc2ccc(C)cc2)n1,i,-3.8%,-1.4
O=C1C(Cl)=C(NCCCO)C(=O)c2ccccc21,i,4.5%,/
CCOC(=O)c1ccc(-c2ccc(C(=O)Nc3cccnc3)o2)cc1,i,-7.7%,0.92
Brc1ccc(-c2noc(CCc3ccccc3)n2)o1,i,4.2%,-0.15
Cc1oc(-c2ccccc2F)nc1CS(=O)(=O)CC(=O)NC1CCCC1,i,1.1%,0.82
COCCNC(=O)c1ccc2c(c1)NC(=O)CS2,i,-6.0%,-0.7
CC(=O)Nc1cccc(NC(=O)CSc2nnnn2C)c1,i,-1.0%,-0.49
Cc1csc(SCC(=O)Nc2nc(-c3ccccc3)cs2)n1,i,3.8%,0.05
O=C(Cn1ccc2ccccc2c1=O)NCCC(=O)Nc1ccc2c(c1)OCCO2,i,-0.7%,0.27
COc1cccc2[nH]c3c(N4CCCCC4)ncnc3c12,i,1.4%,-0.94
Cc1nnc(NC(=O)C2c3ccccc3Oc3ccccc32)s1,i,2.3%,/
O=C(Cc1ccccc1)NC1CCN(S(=O)(=O)c2cccc(F)c2)CC1,i,-0.8%,-0.53
CCN(CC)C(=O)CSc1nc(-c2ccc(C)cc2)nc2c1COC(C)(C)C2,i,0.6%,/
Cc1ccc(S(=O)(=O)/N=C(\CCl)N2CCOCC2)cc1,i,5.3%,/
COc1ccc2nc(NC(=O)CCc3nc(-c4ccccc4F)no3)sc2c1,i,-2.9%,-0.07
Cc1ccc(S(=O)(=O)Nc2ccc(-c3nnc(SCC#N)n3C)cc2)cc1,i,1.9%,-0.65
COc1ccc2cc(C(=O)Nc3c(C)n(C)n(-c4ccccc4)c3=O)sc(=O)c2c1OC,i,-0.3%,-0.12
CCN(CC)C(=O)CCNS(=O)(=O)c1ccc(C)cc1,i,2.6%,/
O=C(Nc1ccccc1)Nc1cccc2cccnc12,i,-5.6%,-0.18
CC1=NN(C(C)C)C(=O)C1,i,-1.1%,/
CC(C)Cc1nc(N2CCN(C(=O)Cc3ccccc3)CC2)c(C#N)c2c1COC(C)(C)C2,i,7.3%,-0.29
Cc1nonc1OCCNC(=O)C12CC3CC(CC(C3)C1)C2,i,-7.3%,-0.68
CC(=O)N1CCN(c2ccc(NC(=O)c3ccccc3Br)cc2Cl)CC1,i,3.8%,-0.36
CC(CN1CCCCC1)OC(=O)c1cc2ccccc2o1 (stereo not given),i,-3.2%,0.47
O=C(O)C1CCCN1S(=O)(=O)c1ccc(Br)s1 (stereo not given) (tested in a mixture with another compound),i,-3.8%,0.07
CC(C)(C)C(=O)Nc1ccccc1C(=O)NCc1ccco1,i,-2.6%,0.27
Cc1cc(O)c(C=Nc2ccc(Cl)cn2)c(=O)o1,i,2.5%,/
CN(C)C(=O)CCc1nc(-c2ccc(C(C)(C)C)cc2)no1,i,4.0%,-1.3
CCOc1ccc(-c2nc(-c3ccc(OC)cc3)no2)cc1OCC,i,-2.6%,-1.2
C=CCOc1ccccc1/C=N/O,i,-2.1%,-0.31
Cc1ccc(C(=O)N(CN2CCCC2=O)c2ccc(F)cc2)cc1,i,4.9%,0.87
COc1ccc(OC)c(NC(=O)C2CCN(c3cc(-c4ccccc4)nc4ncnn34)CC2)c1,i,4.8%,-0.35
CCOC(=O)c1nc2sc3c(c2c(=O)[nH]1)CCCC3,i,-6.1%,2
COCCN1CN(S(=O)(=O)c2ccc(Cl)cc2)c2nc3ccccc3nc21,i,1.7%,/
CSc1nnc(CNC(=O)c2ccccc2)n1-c1cccc(C)c1,i,-5.8%,-0.33
COc1ccc(C)cc1S(=O)(=O)N(CC(N)=O)Cc1ccccc1,i,-2.1%,-0.21
CCN(CC)S(=O)(=O)c1ccc(-c2nnc(SCC(=O)N3CCc4ccccc43)o2)cc1,i,5.0%,-1.4
Cn1nc(-c2ccc(Cl)cc2)c2cc(C(=O)N3CCC(N4CCCCC4)CC3)sc21,i,-5.1%,-0.8
COC(=O)c1ccc(CNC(=O)CSc2nnc(COc3ccccc3)n2C)o1,i,-0.2%,-0.24
Cc1ccc(-n2ncc3c(NCc4ccccn4)ncnc32)c(C)c1,i,-1.9%,0.83
CCOc1cc2nc(-c3ccc(OC)c(OC)c3)nc(NCCCN3CCOCC3)c2cc1OC,i,1.4%,/
O=C(CN1CCCCC1)Nc1nnc(-c2ccc([N+](=O)[O-])cc2)s1,i,-4.0%,/
COc1ccccc1NC(=O)c1cc2n(n1)C(C(F)(F)F)CC(c1ccc3c(c1)OCO3)N2 (stereo not given),i,0.4%,-0.78
CCOC(=O)C1=C(O)/C(=C\c2ccc(OC)c(OC)c2)N=C1C,i,-4.1%,/
O=C1CC(N(O)c2ccccc2)C(=O)N1c1cc(Cl)cc(Cl)c1 (stereo not given),i,-1.6%,-0.94
Cc1cc(C(F)(F)F)nn1C(=O)c1cccnc1Cl,i,-3.1%,/
COC(=O)c1[nH]c2ccc(Br)cc2c1NC(=O)Oc1ccccc1,i,0.7%,/
CN(C)CCN1CCc2ccccc21,i,-2.4%,/
CCc1ccc2[nH]cc(C(=O)N3CCCCCC3)c(=O)c2c1,i,-9.5%,-1.5
Cc1cccc(CN2CCN(CC(=O)NCCCN3CCCC3=O)C2=O)c1,i,-1.6%,-0.48
CCOC(=O)C(NC(C)=O)(NS(=O)(=O)c1ccccc1)C(F)(F)F (stereo not given),i,-2.0%,-0.21
CCOC(=O)CCCNC(=O)COC(=O)CCC(=O)c1ccc(F)cc1,i,-2.5%,0.2
COc1ccccc1N1CCN(C(=O)CCNS(=O)(=O)c2ccc3c(c2)CCC(=O)N3)CC1,i,0.2%,-0.88
Cc1cc(C)c2c(n1)nn1c(NCCCn3ccnc3)cc(C)nc21,i,3.4%,0.27
N#Cc1ccccc1CSc1nc(N2CCCCC2)nc(N2CCCCC2)n1,i,2.0%,0.9
O=C1c2cccc3c(Cl)ccc(c23)C(=O)N1O,i,11%,-0.05
CC1CCN(C(=O)c2ccc(C(=O)N3CCC(C)CC3)cc2)CC1,i,-4.2%,0.7
Cn1c(=O)cc(SCC(=O)NCc2ccco2)c2ccccc21,i,3.8%,0.49

# Single records (already shown).
# Entry for Cc1csc(SCC(=O)Nc2nc(-c3ccccc3)cs2)n1 → MT1-MMP reporter: i; Hsc70: 3.8%; WNV protease inh: 0.05
# Entry for O=C(Nc1ccccc1)Nc1cccc2cccnc12 → MT1-MMP reporter: i; Hsc70: -5.6%; WNV protease inh: -0.18

# Continuation:
SMILES,MT1-MMP reporter,Hsc70,WNV protease inh
CCC(=O)N1CCc2cc(Br)cc(S(=O)(=O)NCc3ccco3)c21,i,-3.9%,0.13
COc1ccc(-c2nnc(SCC(=O)c3ccco3)n2-c2ccccc2)cc1,i,-7.8%,-0.38
COc1ccc(Nc2nnc(SCc3cc(=O)n4ccsc4n3)s2)cc1,i,11%,/
COC(=O)c1c(NC(=O)Nc2ccc(Cl)cc2)sc(C)c1C,i,-7.0%,/
COc1ccccc1CNS(=O)(=O)c1c(C)noc1C,i,-2.8%,-0.63
Cc1cc(=O)[nH]c(-n2nc(C)c(Oc3ccccc3O)c2C)n1,i,-6.4%,0.77
CCc1nnc(NC(=O)c2c(O)c3cccc4c3n(c2=O)CC4)s1,i,-7.9%,0.25
COc1ccc(OC)c2[nH]c(=O)c(CCNC(C)=O)cc12,i,2.8%,1.6
CCCC1C(C#N)=C(N)Oc2n[nH]c(C(C)(C)C)c21 (stereo not given),i,1.0%,0.66
O=C(Nc1ccc(Cl)cc1C(=O)N1CCOCC1)c1ccco1,i,-7.3%,-0.36
COc1ccccc1N1CCN(C(=O)CSc2nc3ncnc(N)c3[nH]2)CC1,i,-2.7%,-0.67
COc1ccccc1OCC(=O)Nc1nc(-c2ccc(S(=O)(=O)N3CCOCC3)cc2)cs1,i,-3.7%,/
O=C(O)c1cccc2c1C(=O)N(Cc1ccncc1)C2,i,4.9%,0.32
Cn1c(SCC(=O)NC(C)(C)C)nc(O)cc1=O,i,12%,0.41
Cc1cccc(C)c1N(CC(=O)N1CCN(C)CC1)S(C)(=O)=O,i,7.0%,-0.14
Oc1ccc(Oc2ncc(Cl)cc2Cl)cc1,i,2.4%,0.95
COc1ccc(C2C=C(c3ccccc3)Nc3ncnn32)cc1 (stereo not given),i,9.2%,-0.68
CC1(C)OC(=O)N2CCc3ccccc3C21C (stereo not given),i,-1.5%,/
CCOc1ccc(NC(=O)c2ccc(S(=O)(=O)N(C)C)cc2)cc1,i,-1.0%,-1
O=C(Nc1ncn[nH]1)c1c(Cl)ccc(Cl)c1Cl,i,8.5%,1.7

# Continued; it opens with the 7 that closed the last part.
SMILES,MT1-MMP reporter,Hsc70,WNV protease inh
Cn1c(SCC(=O)NC(C)(C)C)nc(O)cc1=O,i,12%,0.41
Cc1cccc(C)c1N(CC(=O)N1CCN(C)CC1)S(C)(=O)=O,i,7.0%,-0.14
Oc1ccc(Oc2ncc(Cl)cc2Cl)cc1,i,2.4%,0.95
COc1ccc(C2C=C(c3ccccc3)Nc3ncnn32)cc1 (stereo not given),i,9.2%,-0.68
CC1(C)OC(=O)N2CCc3ccccc3C21C (stereo not given),i,-1.5%,/
CCOc1ccc(NC(=O)c2ccc(S(=O)(=O)N(C)C)cc2)cc1,i,-1.0%,-1
O=C(Nc1ncn[nH]1)c1c(Cl)ccc(Cl)c1Cl,i,8.5%,1.7
O=C(CCN1CCN(c2ccc(Cl)cc2)CC1)Nc1nccs1,i,1.6%,/
O=C(NCCNCCO)c1c(O)c2cccc3c2n(c1=O)CCC3,i,0.3%,0.4
COC1CCCCC1Nc1cc(C)ccc1C (stereo not given),i,-0.2%,0.11
COc1ccc(N(CC(=O)NCC2CCCO2)S(=O)(=O)c2c(C)noc2C)cc1 (stereo not given),i,5.7%,0.46
COc1cc(CNc2cc(C)ccc2C)cc(OC)c1OC,i,-5.7%,-1.4
CCNC(=O)c1ccc(NS(=O)(=O)c2ccccc2)cc1,i,-0.3%,0.11
Cn1c(=O)c2c(nc(NCc3ccco3)n2C)n(C)c1=O,i,5.9%,0.62
CC(C)NC(=O)NC(=O)COC(=O)C1CCCN1C(=O)c1cccs1 (stereo not given),i,2.4%,/
CCCSc1n[nH]c(NC(C)=O)n1,i,5.1%,0.32
Cn1c(SCC(=O)c2ccc(-c3ccccc3)cc2)nnc1-c1ccco1,i,-15%,0.46
CCC(=O)Oc1c(S(=O)(=O)c2ccc(C)cc2)c(C)nn1C(C)(C)C,i,-3.0%,-2.4
O=C(NC1CCCCCCC1)C1CCN(S(=O)(=O)N2CCC3(CC2)OCCO3)CC1,i,-2.0%,-0.44
CC(=O)CC(=O)NC1C2CC3CC(C2)CC1C3 (stereo not given),i,-5.7%,0.97
O=C(Cn1cccc1C(=O)c1ccccc1)NCc1ccc2c(c1)OCO2,i,3.2%,-0.24
O=C(c1cccs1)N(Cc1ccco1)C1CCS(=O)(=O)C1 (stereo not given),i,-4.2%,0.84
CCc1ccc2[nH]c(=O)c(CN(CCN3CCCC3)C(=O)NC3CCCCC3)cc2c1,i,-0.7%,1.6
COc1cc(-c2nnc(-c3ccccc3)o2)cc(OC)c1OC,i,-3.6%,/
O=C(Nc1ccccc1N1CCN(C(=O)c2ccccc2)CC1)c1ccc2c(c1)OCO2,i,1.4%,-0.34
Cc1ccc(S(=O)(=O)C2(C(=O)N(C)C3CCCCC3)CC2)cc1,i,-4.9%,-0.26
O=C(CN1CCC(NC(=O)Nc2ccccc2-c2ccccc2)CC1)NCc1ccco1,i,-3.5%,-0.87
CCOC(=O)c1[nH]c(C)c(C(=O)NC2CCN(C(=O)OCC)CC2)c1C,i,5.3%,0.48
COc1cccc2cc(C(=O)N3CCc4ccccc4C3)c(=O)oc12,i,-1.4%,-0.63
COc1cc(S(=O)(=O)NCCc2ccc3c(c2)OCO3)ccc1-n1cnnn1,i,-8.8%,0.75
COc1ccc(OC)c(-n2c(SCC(=O)NCc3ccco3)nnc2-c2c[nH]c3ccccc23)c1,i,6.0%,-1.3
O=[N+]([O-])c1ccccc1CNC(Cc1ccccc1)c1ccccc1 (stereo not given),i,1.6%,/
CC(C)c1nnc(NC(=O)CCC(=O)NCc2ccco2)s1,i,2.2%,-0.93
c1cnc(SCCOc2ccc3c(c2)CCC3)nc1,i,-1.8%,/
O=C(Nc1ccc(N2CCOCC2)c(F)c1)c1ccncc1,i,1.2%,-1.4
O=C(c1cc2ccccc2oc1=O)N1CCN(C(=O)C2CCCO2)CC1 (stereo not given),i,5.2%,-0.64
COc1ccc(CCNC(=O)c2cc(-c3cc(C)ccc3O)n[nH]2)cc1OC,i,2.4%,/
O=c1[nH]c2ccsc2c(=O)n1-c1ccc(F)cc1,i,0.3%,-0.7
COc1ccc2[nH]c3ccc(OC)cc3c2c1,i,1.7%,0.22
COc1ccc(-c2onc(C)c2-c2ccccc2)c(O)c1,i,4.2%,-0.38
N#CC(c1nc2ccccc2nc1N1CCCC1)S(=O)(=O)c1ccccc1 (stereo not given),i,54%,-1.3

# High-throughput results (PubChem BioAssay)
